miR-21 FLuc = qHTS Assay for Modulators of miRNAs and/orActivators of miR-21; Potency, µM (doses to about 38.3 µM), for the others: at the highest dose reporter change, positive = more light; HeLa miR-21 FLuc reporter, luciferase, 48 h; 340,000 tested, under 10 active; active = well fitted rising curve with a large enough effect; inconclusive = small, poorly fitted or top-dose-only effect; inactive = no such curve, though single readings can be large or run the other way;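 also: % of control where 0% means no effect; miR-21 action dims this reporter so a rising signal means less miR-21 action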
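Using DMEM plus 10% FBS, HeLa miR-21-FLuc cells are incubated with test compounds (final up to about 40uM) for 48 hours; firefly luciferase signal is then imaged following reagent-mediated lysis.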
GLA inh pH 4.5 = qHTS Assay for Inhibitors of Human alpha-Galactosidase at pH 4.5 | AID 1467, 2008 | 230,000 tested, under 10 active | purified enzyme, 4-MU-alpha-Gal fluorescence, pH 4.5 | activity change, negative = inhibition, % at 105 µM; inconclusive = small, poorly fitted or top-dose-only inhibition, or a rising curve; inactive = flat fitted curve, though single readings scatter; no compound was filed as active;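 also: 0% = full activity with enzyme and -100% = basal without enzyme; dose as in the result columns while the protocol names 77 µM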
Target sequence (P06280 whole entry, looked up): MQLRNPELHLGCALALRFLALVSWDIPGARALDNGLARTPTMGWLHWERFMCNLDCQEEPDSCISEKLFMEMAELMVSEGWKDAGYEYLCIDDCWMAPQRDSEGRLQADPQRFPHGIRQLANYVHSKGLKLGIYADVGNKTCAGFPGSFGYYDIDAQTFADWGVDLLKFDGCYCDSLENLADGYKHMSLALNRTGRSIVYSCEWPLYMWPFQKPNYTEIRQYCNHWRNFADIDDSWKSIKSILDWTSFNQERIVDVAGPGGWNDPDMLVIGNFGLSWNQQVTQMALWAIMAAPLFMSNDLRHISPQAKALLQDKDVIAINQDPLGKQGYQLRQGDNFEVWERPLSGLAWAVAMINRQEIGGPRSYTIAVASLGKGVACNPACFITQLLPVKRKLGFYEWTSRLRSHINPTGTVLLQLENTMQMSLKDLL
Rango complex inh = qHTS Assay for Inhibitors of Rango (Ran-regulated importin-beta cargo) - Importin beta complex formation | Importin subunit beta-1 (Homo sapiens), Q14974 | Potency, µM (series often up to 92.2 µM), for inactives: at the highest dose inhibition of complex formation | Rango CFP/YFP FRET sensor + importin beta, 45 min | 340,000 compounds, 0.031% hits; active = rising FRET ratio curve, often small or poorly fitted; inconclusive = mostly compound fluorescence or quenching in the first reads; inactive = flat curves in all reads;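 also: potency is read from the fitted curve at half-maximal effect; 0% = DMSO wells and 100% = buffer wells lacking importin beta; nearly all actives have a fitted effect of over 15% in size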
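Inhibition scored from the CFP 486 nm/YFP 530 nm FRET ratio 45 min after adding 0.125 microM importin beta to 50 nM Rango biosensor preincubated 5 min with compound (room temperature, PBS with DTT, Tween-20, BSA). No-importin wells as positive control.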
Rango dissoc inh = qHTS Assay for Inhibitors of RanGTP induced Rango (Ran-regulated importin-beta cargo) - Importin beta complex dissociation; 340,000 compounds, 0.071% hits; Potency, µM (doses to about 46.1 µM), inactives show top-dose activity change, negative = inhibition; Snurportin-1 (Homo sapiens) + GTP-binding nuclear protein Ran (Homo sapiens) + Importin …; AID 540253, 2011; Biochemical FRET Rango-importin beta, RanGTP-induced dissociation; active means falling FRET ratio curve, often poorly fitted, with flat reads before Ran was added; inconclusive means other falling curves, or compound fluorescence or quenching; inactive means flat or rising ratio curve;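 also: potency is read from the fitted curve at half-maximal effect; % of control where 0% means no effect; nearly all actives have a fitted effect of over 45% in size; -100% = wells without RanGTP and RCC1; the record marks most hits as doubtful in a second field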
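Quantitative HTS using a FRET biosensor: 0.1 uM Rango, 0.25 uM importin beta, 0.6 uM Ran, 2 mM GTP, 0.2 uM RCC1 final, PBS with DTT, Tween-20 and BSA. Post-read taken 45 min after Ran addition.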
* = called active by the depositor; ? = inconclusive; . = not tested or not shown; & = joins results of further samples. Only part of the results is shown (hit frequency here may not be typical).

The opening 5 compounds, to show the layout:
miR-21 FLuc | GLA inh pH 4.5 | Rango complex inh | Rango dissoc inh | SMILES
20% | 1 | ? | 0% | O=[N+]([O-])c1ccc(Oc2cccc3cccnc23)c([N+](=O)[O-])c1
-7%&-1% | . | -2.3% | 7% | COc1ccc(CNC(=O)CCNS(=O)(=O)c2ccc3c(c2)oc(=O)n3C)cc1
-5% | 2 | -1.6% | 5% | CCCc1cc(=O)[nH]c(SCC(=O)N(Cc2ccccc2)C(C)C)n1
-8% | -2 | ? | ? | OCCNc1c2ccccc2nc2c(F)c(F)c(F)c(F)c12
. | . | 3.1% | 5% | COc1ccc(S(=O)(=O)NCCOc2ccc(Cl)cc2)cc1

All compounds of this part, repeating the preview:
miR-21 FLuc | GLA inh pH 4.5 | Rango complex inh | Rango dissoc inh | SMILES
20% | 1 | ? | 0% | O=[N+]([O-])c1ccc(Oc2cccc3cccnc23)c([N+](=O)[O-])c1
-7%&-1% | . | -2.3% | 7% | COc1ccc(CNC(=O)CCNS(=O)(=O)c2ccc3c(c2)oc(=O)n3C)cc1
-5% | 2 | -1.6% | 5% | CCCc1cc(=O)[nH]c(SCC(=O)N(Cc2ccccc2)C(C)C)n1
-8% | -2 | ? | ? | OCCNc1c2ccccc2nc2c(F)c(F)c(F)c(F)c12
. | . | 3.1% | 5% | COc1ccc(S(=O)(=O)NCCOc2ccc(Cl)cc2)cc1
-1% | -5 | 4.0% | 20% | C/C=C/c1ccc(OCC(=O)O)c(OC)c1
-25% | -5 | 3.8% | 3% | O=C(c1ccc(Cl)cc1)N1CCN(c2ccc(F)cc2)CC1
. | . | -1.8% | -9% | CC(C)[C@H](NS(=O)(=O)c1ccccc1)C(=O)Nc1nccs1
1% | . | 1.7% | -10% | Cc1c(NC(=O)COc2cccc(Br)c2)c(=O)n(-c2ccccc2)n1C
. | . | ? | -15% | CC(C)C(=O)Nc1ccc(C(=O)CN2C(=O)NC3(CCOc4ccccc43)C2=O)cc1 (centres undefined)
. | . | -2.7% | -14% | CC1(C)CC[C@]2(C(=O)O)[C@H](O)C[C@]3(C)C(=CCC4[C@@]5(C)C[C@H](O)[C@H](O)[C@@](C)(CO)C5CC[C@]43C)[C@@H]2C1 (some centres undefined)
3% | . | 0.0% | 9% | Cc1ccc(NC(=O)C2CCCN2C(=O)NC2CCCCC2)cc1F (centres undefined)
-37% | 4 | -1.0% | 5% | CCc1nc(OCCN(CC)CC)c2oc3ccccc3c2n1
-15% | . | -1.6% | 18% | OC(CN1CCCCC1)Cn1c2ccccc2c2ccccc21 (centres undefined)
-7% | 5 | -3.2% | -5% | CC1CCCC(C)N1c1nnc(NC(=O)Cn2c(=O)oc3ccccc32)s1 (centres undefined)
18% | 5 | -4.4% | -12% | NS(=O)(=O)c1ccc(CCNc2ncnc3sccc23)cc1
. | . | 0.0% | 1% | COc1ccc(-c2csc(NC(CO)c3nc4ccccc4n3CCCO)n2)cc1 (centres undefined)
-7% | -16 | 6.5% | -14% | O=C(CNC(=O)c1cccs1)OCC(=O)c1cccs1
. | . | 5.4% | 31% | O=C(COC(=O)c1cc(Br)ccc1O)NNC(=O)c1ccc(Cl)cc1
-2% | 6 | -2.5% | -9% | NNc1ccc2nnc(C(F)(F)C(F)(F)C(F)(F)F)n2n1
. | . | 0.5% | 0% | CC(C)CCN1CCN=C1N(C)C
-15% | 3 | -0.7% | -2% | Cn1c(=O)c2nc(-c3ccccc3)oc2c2ccccc21
-6% | 1 | -1.1% | 0% | CCOC(=O)N1CCN(C(=O)CNCc2cccs2)CC1
-11% | 9 | -7.0% | 1% | CCOC(=O)Cc1cc(=O)n(-c2nc3ccccc3s2)[nH]1
4% | -2 | -6.5% | -5% | O=c1cc(N2CCN(c3ccc(F)cc3)CC2)[nH]c(=O)n1C1CCCCC1
-1% | 5 | 0.7% | 4% | C=CCn1c(-c2ccco2)n[nH]c1=S
-2% | . | -1.6% | ? | COC(=O)c1cc(Br)c(=O)n(CCc2ccc(O)cc2)c1
5% | . | -4.0% | -5% | COc1ccc(N2CCN(CCNC(=O)c3ccc4nc5ccccc5c(=O)n4c3)CC2)cc1
10% | -10 | -2.7% | -2% | OC1(c2ccc(Cl)cc2)CCN(Cc2cn[nH]c2-c2ccccc2)CC1
-1% | -4 | 1.7% | -2% | CC(=O)Nc1ccc(NC(=O)C2CCN(c3ccc(C(F)(F)F)cn3)CC2)cc1
5% | . | -1.7% | ? | Cc1ccc2c(c1)N(C(=O)CCC(=O)N1CCN(c3ccccc3)CC1)CCO2
. | . | 2.5% | -4% | CCN(CC(=O)Nc1c(F)cccc1F)C(=O)CN1C(=O)C2CCCCC2C1=O (centres undefined)
12% | ? | -0.1% | -1% | c1ccc(CN2c3ccccc3-c3nc4ccccc4n3C2c2ccccn2)cc1 (centres undefined)
-11% | 3 | 0.3% | -2% | O=C(Nn1cnnc1)c1ccccc1CCc1ccccc1
. | . | -1.7% | -8% | CSCCC(NC(=O)c1cc(S(=O)(=O)N2CCOCC2)ccc1C)c1nc2ccccc2[nH]1 (centres undefined)
-20% | -2 | -0.6% | -8% | CCc1ccc(OCC(=O)N/N=C\c2ccco2)c([N+](=O)[O-])c1
. | . | -1.0% | 7% | CC(C)(O)c1cc2ccc(C#CCCN3C(=O)c4ccccc4C3=O)cc2c(=O)o1
. | . | -3.6% | -20% | CC(C)Cn1c(SCC(=O)N2CCc3ccccc3C2)nc(O)cc1=O
-11% | . | 7.6% | 8% | Cc1ccc(S(=O)(=O)NCc2ccccn2)cc1C
-4% | 1 | 2.2% | 7% | CCCCCCc1c(O)nc(SCC(=O)O)[nH]c1=O
-1% | . | ? | -26% | O=C(O)[C@@H]1CCCN1C(=O)c1ccccc1N1C(=O)[C@@H]2Cc3c([nH]c4ccccc34)C(c3cccc(Cl)c3)N2C1=O (some centres undefined)
15% | . | -8.4% | -17% | COc1ccc(CN2CCN(Cc3ccc4cc(F)ccc4n3)CC2CCO)c(C)c1C (centres undefined)
-15% | . | ? | -6% | COc1ccc(C2=NN(c3ccccc3)C(c3ccc(OC)c(OC)c3)C2)cc1 (centres undefined)
-3% | 6 | 1.1% | 0% | CCNc1nc(OC)nc(SCC(N)=O)n1
-1% | . | 3.4% | -4% | CS(=O)(=O)c1ccc(Cl)c(NC(=O)CCCSc2ccccc2)c1
0% | -9 | 2.6% | -1% | Cc1ccc(N=N/C(=C\O)C(=O)c2ccncc2)cc1
-1% | . | -1.1% | 16% | Cc1ccc(C(=O)N2CCN(c3ccccc3)CC2)cc1S(=O)(=O)N1CCOCC1
2% | 2 | 2.8% | -7% | CCOC(=O)c1cnc2scnn2c1=O
-40% | -4 | -1.6% | 14% | CCCc1cc2c(=O)c(-c3ccccn3)c(C)oc2cc1O
2% | . | -2.2% | -16% | Cc1cc(C)c(/C=N/NC(=O)c2nnn(-c3nonc3N)c2CN2CCC(C)CC2)c(C)c1

Continuation:
miR-21 FLuc | GLA inh pH 4.5 | Rango complex inh | Rango dissoc inh | SMILES
4% | . | -2.8% | -7% | CCC(=O)Nc1ccc(C2=Nn3c(nnc3C(C)C)SC2)cc1
1% | . | 0.7% | 8% | COc1ccc(-c2[nH]ncc2CN2CCN(C(=O)c3cccs3)CC2)c(F)c1
-1% | -3 | 1.9% | 14% | Cc1ccc(/C=N/NC(=O)Cn2nnc(N)n2)cc1
-55% | 0&3 | -3.5% | -9% | CC1(C(=O)NCCN2CCOCC2)C=CCN1C(=O)c1ccccc1 (centres undefined)
-1% | . | 2.7% | -2% | C/C(=N\NC(=O)CNC(=O)c1ccccc1Br)c1ccco1
0% | 7 | -2.3% | 0% | CCOCCCNC(=O)C1CCCN1C(=O)Nc1ccccc1[N+](=O)[O-] (centres undefined)
-18% | -6 | -1.4% | -21% | Cc1nn(-c2ccc(C(=O)O)cc2)c(=O)c2ccccc12
-19% | 9 | 0.2% | -2% | CCCC(=O)Nc1ccc2c(c1)nc1n2CCOC1
-57% | -3 | 0.0% | ? | O=c1oc2cc(Cl)ccc2n1CSc1nc2ccccc2s1
-3% | -4 | -1.0% | -5% | O=C(CN1CCN(c2cccc(Cl)c2)CC1)Nc1ccc([N+](=O)[O-])cc1C(=O)Nc1ccccc1F
5% | -1 | -1.3% | -1% | CCOC(=O)C(NC(=O)c1cccc(Cl)c1)(OCc1ccc(F)cc1)C(F)(F)F (centres undefined)
2% | 9 | 9.7% | 19% | CC(C)(C)NCCOCCOc1ccccc1-c1ccccc1
. | . | 8.8% | 0% | CN1CCN(c2ccc(S(=O)(=O)N3CCOCC3)cc2NC(=O)C2CCCCC2)CC1
2% | . | -5.3% | 12% | COCCCn1c(=O)c2sccc2n(Cc2cccc(C)c2)c1=O
-5% | -7 | -1.2% | 0% | Fc1ccc(C(c2nnnn2Cc2cccs2)N2CCN(c3ccccc3)CC2)cc1 (centres undefined)
-10% | 4 | 0.2% | 17% | CC(C)CNS(=O)(=O)c1ccc2c(c1)OCCO2
-9% | 2 | -0.1% | -12% | CCCOc1nc2c(c(=O)n(C)c(=O)n2C)n1CCC
-5% | . | -0.3% | -11% | COc1cccc(CNS(=O)(=O)c2ccc3c(c2)oc(=O)n3C)c1
-23% | 3 | -0.8% | 8% | NC(=O)N/N=C/c1cccc(OCc2ccc(F)cc2)c1
-40% | -6 | 0.6% | ? | O=S(=O)(c1cc(Cl)ccc1Cl)N1CCCC1
-2% | 1 | 2.7% | -6% | Cc1cccc2c1nc(-c1ccccc1)n1nnnc21
. | . | -2.0% | -11% | CCCN(CC(=O)Nc1ccccc1OC)C(=O)c1nc2nc(C)ccn2n1
1% | . | -6.7% | 21% | COc1cccc(NC(=O)c2ccc3c(c2)N(CC(=O)N2CCOCC2)C(=O)C(C)(C)O3)c1
-13% | . | -0.4% | -8% | COc1ccccc1N1CCN(C(=O)C(=O)c2c[nH]c3ccccc23)CC1
-1% | 4&-4 | ? | -3% | COC(=O)CCCC1=CC2=CC(=O)C(C)(OC(=O)c3cccs3)C(=O)C2=CN1Cc1ccco1 (centres undefined)
. | . | -2.3% | 0% | Cc1ccc(S(=O)(=O)N2CCC(C(=O)OCc3ccccc3)CC2)cc1C
-6% | 2 | -3.0% | 0% | Cc1ccc(C(=O)Nc2nc(=O)n(C(=O)C3CC3)s2)cc1
. | . | -0.7% | -11% | COc1ccc(NC(=O)N(C)C[C@H]2Oc3ccc(NC(=O)NC4CCCCC4)cc3C(=O)N([C@H](C)CO)C[C@@H]2C)cc1
-4% | 3 | -0.3% | -2% | O=C(O)c1ccc(S(=O)(=O)N(Cc2cccs2)CC2CCCO2)cc1 (centres undefined)
-2% | . | 0.0% | -1% | c1ccc(-c2cn(C[C@H]3CC[C@@H]([C@@H]4CC[C@H](Cn5cc(-c6ccccn6)nn5)O4)O3)nn2)nc1
-5% | . | 12% | -7% | Cc1cc(C)c(C(=O)CSc2nc(C)cc(=O)[nH]2)c(C)c1
-3% | -5 | ? | -22% | CSc1nc(Sc2ccccc2Cl)c2ccccc2n1
-1% | -1 | -0.4% | -7% | Cc1cccc(-n2nnnc2SCC(=O)NCCN2C(=O)CSC2=O)c1
3% | . | 0.9% | 14% | CC1(C)Oc2ccc3ccc(=O)oc3c2/C(=N/O)C1=O
. | . | -2.6% | 0% | CCc1c(N)nc(N)nc1Nc1ccccc1Cl
7% | 7 | 4.1% | -9% | Cc1cccc(Nc2nnc(SCC(=O)Nc3ccc(C(=O)O)cc3)s2)c1
. | . | 5.3% | 34% | CNC(=O)c1c(NC(=O)C2=COCCO2)sc(C)c1C
. | . | -0.1% | 1% | Cc1ccc(CONC(=O)c2cccc([N+](=O)[O-])c2)cc1
0% | 2 | -4.4% | -2% | O=C(CN1C(=O)CCS(=O)(=O)c2ccccc21)Nc1ccc2c(c1)OCCO2
1% | . | 1.7% | -16% | CCC(C)N(C(=O)c1csnn1)C(C(=O)NCc1ccc(F)cc1)c1ccccc1F (centres undefined)
-1% | . | -0.1% | -14% | O=C(CCc1ccccc1)Nc1ccnn1C1CCN(C/C=C/c2ccccc2)CC1
-1% | -10 | ? | -9% | CCN(CC(=O)NC(C)C)C(=O)C(CCSC)NC(=O)c1ccccc1OC (centres undefined)
-2% | -6 | 1.5% | 8% | O=C(Nc1ccccc1Cl)Nc1cccnc1Cl
